# Source: PubChem (National Center for Advancing Translational Sciences (NCATS))
# Sfp inh = inhibitors of Bacillus subtilis Sfp phosphopantetheinyl transferase | 3.5% of 310,000 active | Potency, µM, for inactives: max response, negative = inhibition, most hits filed as inhibitors | Biochemical Sfp PPTase activity, qHTS | Q9F4F7 | AID 1490; active = well fitted inhibition curve with a large enough effect; inconclusive = small, poorly fitted or top-dose-only effect, or another doubt; inactive = no such curve, though single readings can be large or run the other way;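 also: the enzyme is Sfp with the accession as filed and its product quenches rhodamine fluorescence; potency is read from the fitted curve at half-maximal effect; 0% = enzyme reaction without inhibitor and -100% = no enzyme wells; top concentration of the series not given in the record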
#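 With Hepes-Na pH 7.6 buffer containing 10 mM MgCl2, Sfp (15 nM) modified BHQ-2-YbbR (12.5 uM) using rhodamine-CoA (5 uM). Two reads 30 minutes apart at 525/598 nm yielded each well's rate.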
# D2 PAM = positive allosteric modulators of human D2 dopamine receptor | potentiation, % (test concentration not listed) | AID 624464 | P14416 | 0.23% of 360,000 active | DiscoveRx D2 beta-arrestin cells, luminescence, 90 min; 100% = 57 uM dopamine signal; active = potentiation of 50% or more; inconclusive = 30% to 50%; inactive = 30% or less;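 also: compound concentration not given in the record; tested on top of an EC20 dose of dopamine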
#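 PathHunter D2 cells, attached overnight at 37 deg C, received compound in DMSO plus dopamine at EC20 (50 nM final) for 90 min at 37 deg C. Beta-arrestin recruitment was read as luminescence after 1 h with detection reagent at ambient temperature.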
# gsp antagonist = antagonists of gsp mutant (McCune-Albright syndrome). AID 624288. gsp-mutant cells, cAMP HTRF, 30 min; control for the full effect not named in the record. Potency, µM (series often up to 76.9 µM), without a hit: at the highest dose activity change, negative = inhibition, usual class: inhibitors. 0.4% of 340,000 active; active = falling curve of any shape with a large fitted effect; inconclusive = falling curve, mostly with a smaller effect; inactive = flat or rising curve; cell line not stated here;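 also: intracellular cAMP measured with PDE inhibitor Ro 20-1724 present during compound exposure; potency is read from the fitted curve at half-maximal effect; % is scaled to controls: 0 for no effect and ±100 for the full control effect; nearly all actives have a fitted effect of over 65% in size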
#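 HTRF cAMP measurement after 30 min RT detection following 30 min, 37C compound treatment alongside […] (added as 300 uM solution) in G418-selected cells seeded at 2000/well and grown 16–24 h.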
# gsp agonist = activates gsp, the McCune-Albright syndrome mutation; Potency, µM (top dose mostly 76.9 µM), without a hit: at the top dose activation (cAMP increase), hits mostly activators; 0.13% of 340,000 active; gsp mutant cells, cAMP HTRF, 30 min; control for the full effect not named in the record; active = well fitted activation curve with a large enough effect; inconclusive = small, poorly fitted or top-dose-only effect, or another doubt; inactive = no such curve, though single readings can be large or run the other way; cell line not stated here;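 also: phosphodiesterase inhibitor Ro 20-1724 added with compounds to block cAMP breakdown; potency is read from the fitted curve at half-maximal effect; nearly all actives have a fitted effect of over 60% in size; about a fifth of the inactives were tested at one dose only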
#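 Cells stably selected in G418 were plated at 2000/well, grown 16-24 hr, then given compounds in DMSO with the PDE inhibitor […] (300 uM solution added) for 30 min at 37C; cAMP was read by HTRF.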
# ClpP mod = qHTS Assay for Activators of ClpP. purified B. subtilis ClpP, FRET peptide cleavage, 20 min. 1.9% of 340,000 active. Potency, µM (highest dose often 57.5 µM), for the others: at the highest dose activity change, negative = active; active = well fitted falling curve with a large enough effect; inconclusive = small, poorly fitted or top-dose-only effect; inactive = no such curve, though single readings can be large or run the other way; also: potency is read from the fitted curve at half-maximal effect; the source files actives as falling curves though it sought activators and does not explain the sign; nearly all actives have a fitted effect of over 65% in size; many hits overshoot -100%
# Target sequence (P80244 whole entry, looked up): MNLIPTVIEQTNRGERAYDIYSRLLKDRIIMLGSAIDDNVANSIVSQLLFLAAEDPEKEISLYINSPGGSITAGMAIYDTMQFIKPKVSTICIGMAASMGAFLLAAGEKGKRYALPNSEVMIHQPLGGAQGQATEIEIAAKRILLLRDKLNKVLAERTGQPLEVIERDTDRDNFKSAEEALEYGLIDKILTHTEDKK
#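 ClpP 10 microg/mL final, pH 8 Tris/KCl buffer with BSA, glycerol, Tween-20; compound pinned in; FRET-FV substrate; RT 20 min; Ex320/Em430; ΔFRET vs ADEP 5.8 microM, DMSO, no enzyme.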
# TRPV1 PAM = enhances activation of the human vanilloid receptor TRPV1; Q8NER1; 0.02% of 320,000 active; potentiation, % at 8.33 µM; TRPV1-expressing cells, Fluo-8 calcium influx, capsaicin EC20 potentiation; host cell line not named in the record; control for the full effect not named in the record; active means potentiation above 80%; inconclusive means 30% to 80%; inactive means below 30%; also: 0% is about no effect
# Target sequence (Q8NER1 whole entry, looked up): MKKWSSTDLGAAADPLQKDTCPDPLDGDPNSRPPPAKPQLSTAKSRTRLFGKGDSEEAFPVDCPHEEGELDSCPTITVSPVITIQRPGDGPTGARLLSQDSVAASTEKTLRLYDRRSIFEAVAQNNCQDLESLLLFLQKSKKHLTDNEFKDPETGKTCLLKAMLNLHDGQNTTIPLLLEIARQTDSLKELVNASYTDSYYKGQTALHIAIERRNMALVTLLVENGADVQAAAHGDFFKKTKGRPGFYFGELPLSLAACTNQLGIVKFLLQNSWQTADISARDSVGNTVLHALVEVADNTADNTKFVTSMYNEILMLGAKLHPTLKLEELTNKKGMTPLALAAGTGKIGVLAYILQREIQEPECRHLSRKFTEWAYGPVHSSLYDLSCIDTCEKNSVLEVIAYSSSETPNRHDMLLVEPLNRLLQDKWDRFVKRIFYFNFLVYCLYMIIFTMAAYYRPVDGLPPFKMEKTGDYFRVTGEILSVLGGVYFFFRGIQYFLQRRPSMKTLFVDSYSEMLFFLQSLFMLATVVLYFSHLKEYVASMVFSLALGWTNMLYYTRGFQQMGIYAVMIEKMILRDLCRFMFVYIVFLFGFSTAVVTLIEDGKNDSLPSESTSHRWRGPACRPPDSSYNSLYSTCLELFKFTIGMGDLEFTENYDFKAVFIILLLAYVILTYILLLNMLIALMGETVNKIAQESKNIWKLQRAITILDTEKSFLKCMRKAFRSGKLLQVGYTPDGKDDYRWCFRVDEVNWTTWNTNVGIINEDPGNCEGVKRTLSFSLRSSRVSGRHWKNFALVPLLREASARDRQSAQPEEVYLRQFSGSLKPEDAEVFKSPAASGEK
#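 Fluo-8 calcium influx in TRPV1-expressing cells, kinetic read (ex 480/em 520 nm). Compound added and read 3 min for agonist activity, followed by capsaicin at EC20 final and 2 min further read for enhancement.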
# Menin MLL FP FL = displaces fluorescein MLL peptide from human menin | Fluorescence polarization, fluorescein-MLL peptide displacement from menin | FP activity change, % at 61.4 µM | 290,000 tested, under 10 active | AID 1766; inconclusive = falling polarisation curve, or a change in total fluorescence; inactive = total fluorescence flat and polarisation flat or rising; no compound was filed as active; the % refers to the polarisation; negative = inhibition;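 also: % of control where 0% means no effect; inhibitors lower the polarisation; unlabelled MLL peptide was the positive control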
# * = called active by the depositor; ? = inconclusive; nt = no result given; & = joins results of further samples; [ ] = remark or other dose.
SMILES,Sfp inh,D2 PAM,gsp antagonist,gsp agonist,ClpP mod,TRPV1 PAM,Menin MLL FP FL
COc1ccc(/C=C(/NC(=O)c2ccccc2Cl)C(=O)O)cc1,10%,-4,8%,4%,-1.5%,5,-1.1
Cc1ccc(C(=O)C(C)OC(=O)c2nc(Cl)ccc2Cl)cc1 (stereo not given),22%,-8,-10%,?,-3.8%,-2,nt
Cc1ccc(C)c(CSc2nnc(CCN)o2)c1,19%,-13,-1%,-2%,0.2%,-3,-2.3
CCOC(=O)C1CCN(C(=O)CN(c2ccc(OC)cc2)S(=O)(=O)c2c(C)nn(C)c2C)CC1,4%,-5,-4%,1%,-3.6%,-4,2.0
CCc1ccc(/C=N/NC(=O)c2ccccn2)cc1,-2%,-5,-5%,1%,nt,-24,2.4
COc1ccccc1NS(=O)(=O)c1cc(C(=O)NCc2ccco2)ccc1C,9%,2,-13%,-3%,-1.0%,6,1.2
COc1ccc(Cc2nnc(NC(=O)c3cccs3)s2)cc1OC,-3%,-3,2%,-2%[15.4 µM],0.3%,12,2.5
O=C(NCCCN1CCOCC1)c1cc(-c2ccc3c(c2)OCO3)nc2ccccc12,-4%,-10,2%,-12%,-6.3%,nt,4.6
COc1ccc(OC)c(CCNC(=O)c2cccc(NC(=O)C3=C(C)OCCS3)c2)c1,12%,-7,-14%,39%,-1.3%,?,nt
CCC(=O)Nc1nnc(Cc2ccccc2)s1,5%,-6,4%,-1%,0.1%,10,1.7
CC1CCC2(CC1)NC(=O)N(CC(=O)N1CCOCC1)C2=O (stereo not given),nt,-1,2%,-22%,nt,nt,nt
O=C(CSc1nnc2c(n1)[nH]c1ccc(F)cc12)Nc1ccccc1F,-4%,-14,4%,-25%,-0.1%,6,1.7
O=C1NCC(COc2cccc3ccccc23)O1 (stereo not given),17%,-6,5%,-1%[15.4 µM],nt,2,0.2
O=C(CNS(=O)(=O)c1ccc(Cl)c(C(F)(F)F)c1)NC1CCCCC1,nt,-4,3%,5%,-0.7%,-17,nt
CN(C)S(=O)(=O)Oc1ccccc1C(=O)Nc1ccc(F)cc1,2%,-1,6%,-10%,nt,2,-3.1
COc1ccc(OC)c(S(=O)(=O)NCC(c2ccc3c(c2)OCO3)N2CCOCC2)c1 (stereo not given),nt,14,3%,9%,-2.5%,4,nt
COc1ccc(-c2ccc3c(c2)S(=O)(=O)c2cccc(C(=O)NCc4cccc(OC(F)(F)F)c4)c2C3=O)cc1OC,nt,-1,-1%,nt,0.8%,nt,nt
CC1=C(C(=O)OC(C)(C)C)C(c2cccs2)NC(=O)N1 (stereo not given),7%,-3,7%,-20%,-1.0%,?,1.8
CCCc1cc(=O)[nH]c(SCC(=O)N(C)Cc2ccccc2)n1,2%,5,-25%,5%,-0.1%,10,-1.2
Cc1ccc(OC(C)C(=O)Nc2ccc(Cl)cn2)c([N+](=O)[O-])n1 (stereo not given),nt,10,-8%,6%[15.4 µM],2.1%,nt,nt
CC1CCCCN1C(=O)c1cc(F)c(F)cc1Cl (stereo not given),18%,12,22%,11%,-1.2%,-2,3.8
CC1Cc2ccccc2N1S(=O)(=O)c1cccc(C(=O)NCC(c2ccco2)N2CCCC2)c1 (stereo not given),nt,-31,-5%,?,-0.9%,-6,nt
O=S(=O)(c1ccc(N2CCOCC2)nc1)N1CCOCC1,15%,-4,0%,7%,-5.2%,3,3.2
CCCn1c(SCC(=O)NC2CCC(C)CC2)n[nH]c1=O (stereo not given),nt,-3,10%,-26%,-0.2%,-12,nt
CCOc1ccc(S(=O)(=O)NCCC(=O)NCC2COc3ccccc3O2)cc1 (stereo not given),nt,-1,-3%,-33%,0.7%,-5,nt

# Grouped by structure, those above with a furan ring, fused or not (two)
SMILES,Sfp inh,D2 PAM,gsp antagonist,gsp agonist,ClpP mod,TRPV1 PAM,Menin MLL FP FL
COc1ccccc1NS(=O)(=O)c1cc(C(=O)NCc2ccco2)ccc1C,9%,2,-13%,-3%,-1.0%,6,1.2
CC1Cc2ccccc2N1S(=O)(=O)c1cccc(C(=O)NCC(c2ccco2)N2CCCC2)c1 (stereo not given),nt,-31,-5%,?,-0.9%,-6,nt

# Next part:
SMILES,Sfp inh,D2 PAM,gsp antagonist,gsp agonist,ClpP mod,TRPV1 PAM,Menin MLL FP FL
Cc1ccc(Cl)cc1N1CCN(S(=O)(=O)c2ccc3[nH]c(=O)ccc3c2)CC1,0%,0,7%,-41%[inhibitor],1.2%,10,-1.6
CCN(c1ccccc1)S(=O)(=O)c1ccc(OC)c(NC(=O)c2c(C)noc2C)c1,nt,-9,-6%,-2%[15.4 µM],0.2%,7,nt
O=C(CC(SCCO)c1ccc2c(c1)OCO2)c1ccco1 (stereo not given),5%,-13,-7%,25%,-1.1%,3,5.4
O=C(Nc1ccccc1)C1=C[C@@H](c2coc3ccccc3c2=O)C[C@@H](OCCCCO)O1,17%,-3,-2%,nt,3.8%,27,1.8
COc1ccc(CC(=O)OCC(=O)NC(=O)NC(C)C)cc1,14%,4,7%,?,1.2%,5,2.8
CCn1c(COc2ccccc2C)nnc1SCC(=O)Nc1ccc2c(c1)OCCO2,15%,-4,-17%,0%,0.6%,13,4.8
O=C(/C=C/c1ccccc1)Nc1cccc(C(=O)NCCCc2ccccc2)c1,nt,-6,-9%,nt,-11%,nt,nt
CCn1c(C)nnc1SCC(=O)Nc1ccccc1Cl,24%,2,5%,-9%,-2.6%,3,-2.2
Cc1cc2ccccc2nc1SCC(=O)Nc1nc(-c2ccccc2)cs1,18%,-7,16%,16%,-2.1%,?,nt
O=C(Cn1cc(COc2c(Br)cc(F)cc2Br)nn1)c1ccc(O)cc1,nt,-10,0%,nt,0.2%,nt,nt
CSC1=NCCN1S(=O)(=O)c1ccc2ccccc2c1,0%,-7,-16%,-31%[inhibitor],-1.2%,?,-5.5
O=C(c1ccccc1F)N(Cc1cccnc1)Cc1cc2cc3c(cc2[nH]c1=O)OCCO3,4%,-3,-2%,?,nt,-5,0.2
Cc1cc(C(=O)Nc2cccc(C(=O)O)c2)c(C)o1,17%,-8,-17%,6%,-0.5%,-4,-2.1
Cc1ccc(Nc2cc(C)nc3c(C)ccc([N+](=O)[O-])c23)cc1,-10%,2,-16%,-1%[15.4 µM],nt,8,6.1
Cc1c(NC(=O)COC(=O)C23CC4CC(CC(Br)(C4)C2)C3)c(=O)n(-c2ccccc2)n1C,12%,-6,11%,-2%[15.4 µM],nt,-2,-2.0
Cc1nc2[nH]c(=S)[nH]c2c(=O)[nH]1,nt,0,-18%,18%,nt,nt,nt
O=[N+]([O-])c1ccccc1/C=C/C=N/n1c(-c2ccccc2)n[nH]c1=S,-18%,-9,-16%,-6%,-3.4%,-3,1.2
COc1ccccc1CC(=O)N1CCN(S(=O)(=O)c2ccccc2)CC1,4%,-17,-12%,?,1.1%,1,nt
COc1cccc(CNC(=O)CSc2ccc(-c3cccs3)nn2)c1,22%,-2,-21%,15%[15.4 µM],1.6%,2,-3.9
O=C(C1CCC1)N1CCC(c2nc3c(nnn3Cc3c(F)cccc3Cl)c(=O)[nH]2)CC1,5%,7,-2%,-34%[inhibitor],-0.5%,?,0.6
CC(=O)c1cccc(OCCCOc2cccc3cccnc23)c1,3%,-2,-7%,-15%[15.4 µM],-0.4%,24,1.4
CC(C)CN(CC(C)C)C(=O)COn1nnc2ccc(S(=O)(=O)N3CCOCC3)cc21,nt,-2,-8%,23%,-1.4%,-31,nt
Cc1[nH][nH]c(=O)c1N=Nc1ccc(Cl)cc1,14%,-26,3%,17%,0.3%,-36,0.1
O=C(NCc1ccco1)C(=O)NCC1OCCCN1S(=O)(=O)c1ccc(Cl)cc1 (stereo not given),20%,-12,-4%,-5%,-0.8%,14,-9.2
COC(=O)c1c(NC(=O)c2ccco2)sc2c1CCN(C(C)=O)C2,7%,5,-9%,30%[15.4 µM],-5.8%,-13,nt

# More entries:
SMILES,Sfp inh,D2 PAM,gsp antagonist,gsp agonist,ClpP mod,TRPV1 PAM,Menin MLL FP FL
COc1ccc(C(=O)NNC2=NC(C)(C)Cc3cc(C)c(C)cc32)cc1,2%,-6,2%,22%,-1.2%,8,-4.5
O=C1C(=O)N(CCS(=O)(=O)c2ccccc2)c2ccc(Cl)cc21,7%,-72,20%,8%,2.8%,4,0.7
C=CCn1c(N)c(C(=O)Nc2ccccc2)c2nc3ccccc3nc21,15%,-13,4%,10%,?,-2,1.7
CCCCC(=O)Nc1cc(OC)c(NC(=O)C2CCCCC2)cc1OC,8%,-4,-2%,-18%,0.7%,-2,-4.8
COc1ccc(CC(=O)O/N=C(\N)c2ccc(C)cc2)cc1,5%,-6,-1%,4%[15.4 µM],0.9%,-1,6.2
Cc1cc(N)ccc1N=Nc1c(C)n(C)n(-c2ccccc2)c1=O,7%,18,-19%,?,?,-5,2.9
Cc1ccc2occ(/C=N/O)c(=O)c2c1,7%,-31,2%,?,-1.7%,-3,5.4
COc1ccc(CCNC(=O)c2c(N)no[n+]2[O-])cc1OC,-2%,1,1%,?,nt,9,1.1
Cc1ccc(C)c(C(=O)Cn2c(NCCO)nc3ccccc32)c1,12%,-10,0%,-28%,-0.2%,3,-3.8
Cc1nc(-c2ccc(F)cc2)c(CC(=O)NCC(=O)Nc2ccc(F)c(F)c2)s1,nt,-17,3%,17%,-2.6%,0,nt
O=C(CCC(=O)NCCCc1ccccc1)NCCCc1ccccc1,-12%,10,1%,-1%,-16%,3,6.0
COCC(=O)N1CCC(n2nccc2NC(=O)CCOc2ccccc2)CC1,12%,-6,?,-21%,0.1%,11,nt
CCCN1CCN(S(=O)(=O)c2ccc3c(c2)OCCO3)CC1,15%,-8,nt,2%[15.4 µM],3.0%,0,-3.4
CCOC(=O)CN1C(=O)C(O)(CC(=O)c2cccc(OC)c2)c2ccccc21 (stereo not given),0%,-7,-1%,-17%,0.0%,9,4.7
CC(c1ccccc1)N1CC(C(=O)Nc2nccs2)CC1=O (stereo not given),6%,6,2%,8%[15.4 µM],nt,2,1.9
O=c1c2ccccc2c(/C=N/c2ncn[nH]2)c(O)n1Cc1ccccc1,-15%,-5&-10,-17%&9%,-19%&-4%,-1.1%,-11,5.7
Cc1ccc2nc3c(cc(C(=O)NCc4ccco4)c(=N)n3C3CCCC3)c(=O)n2c1,11%,nt,nt,nt,nt,-21,4.2
CCCC(=O)Nc1nnc(CCOC)s1,?,-2,9%,4%,nt,-6,1.7
